Screening results from PubChem BioAssay.
Cruzain Triton = cruzain (T. cruzi) inhibition with detergent; purified cruzain, Z-FR-AMC fluorescence, 0.01% Triton; Potency, µM, without a hit: max response, negative = inhibition, most hits filed as inhibitors; 200,000 compounds, 0.43% hits;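 note: plate controls were neutral wells for no effect and buffer without enzyme for full effect; nearly all actives have a fitted effect of over 40% in size; top concentration of the series not given in the record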
Target sequence (P25779 123-467 limits assumed): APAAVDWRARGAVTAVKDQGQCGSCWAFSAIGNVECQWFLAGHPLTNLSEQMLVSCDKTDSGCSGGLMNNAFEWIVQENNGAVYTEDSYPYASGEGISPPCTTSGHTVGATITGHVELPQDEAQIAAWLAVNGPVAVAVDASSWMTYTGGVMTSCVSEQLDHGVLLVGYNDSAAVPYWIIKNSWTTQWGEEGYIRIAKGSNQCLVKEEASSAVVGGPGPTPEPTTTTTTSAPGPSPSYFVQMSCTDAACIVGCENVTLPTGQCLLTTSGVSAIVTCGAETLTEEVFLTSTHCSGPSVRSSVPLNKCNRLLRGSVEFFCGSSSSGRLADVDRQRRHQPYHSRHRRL
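Sodium acetate buffer (100 mM, pH 5.5) containing 5 mM DTT and 0.01% Triton X-100 hosted 1.5 nM cruzain and test compound for 15 min at room temperature. Cleavage of 2 uM Z-FR-AMC was then tracked by fluorescence.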
SARS PLP yeast = SARS-CoV PLP inhibition in yeast | S. cerevisiae expressing SARS-CoV PLpro, growth rescue; control for the full effect not named in the record | Potency, µM (titrated, usually from 32.9 µM), for inactives: at the highest dose activity, positive = growth rescue | 330,000 compounds, 0.19% hits | AID 485353; active means well fitted rising curve with a large enough effect; inconclusive means small, poorly fitted or top-dose-only effect; inactive means no such curve, though single readings can be large or run the other way; note: 0% is about no effect; nearly all actives have a fitted effect of over 55% in size; growth read by luminescence after 48 h
StopGo reporter = lowers the luciferase signal of an FMDV 2A StopGo reporter | human cells with a luciferase reporter of 2A StopGo recoding; control for the full effect not named in the record | 410,000 compounds, 1.2% hits | Potency, µM (highest dose often 57.9 µM), for the others: at the highest dose signal change, negative = less light; active = well fitted falling curve with a large enough effect; inconclusive = small, poorly fitted or top-dose-only effect; inactive = no such curve, though single readings can be large or run the other way; tested in HEK293T cells; note: % is set by controls: 0 for no effect and ±100 for the full control effect; nearly all actives have a fitted effect of over 45% in size; luciferase light after 4 h
RE007 growth inh = less growth of the S. pombe RE007 Vpr strain | Potency, µM (titrated, usually from 92.2 µM), for the others: top-dose activity change, negative = less growth | 360,000 compounds, 0.21% hits | S. pombe RE007 Vpr strain, BacTiter-Glo ATP luminescence, 24 h; control for the full effect not named in the record; active = well fitted falling curve with a large enough effect; inconclusive = small, poorly fitted or top-dose-only effect; inactive = no such curve, though single readings can be large or run the other way;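 note: % is set by controls: 0 for no effect and ±100 for the full control effect; nearly all actives have a fitted effect of over 50% in size; the assay follows cell death caused by Vpr and the record does not say whether a fall means rescue or toxicity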
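Fission yeast strain RE007, carrying one chromosomally integrated HIV-1 vpr copy, was seeded at OD 0.01 in PMG+AL medium with 23 nL pinned compound. After 24 h at 30 °C and 99% humidity, viability was read by BacTiter-Glo luminescence.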
Cruzain noTriton = blocks cruzain activity in detergent-free assay; P25779; purified cruzain, Z-FR-AMC fluorescence, no detergent; Potency, µM, for inactives: max response, negative = inhibition, usual class: inhibitors; 200,000 compounds, 2.3% hits;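 note: plate controls were enzyme without inhibitor for no effect and buffer without enzyme for full effect; nearly all actives have a fitted effect of over 40% in size; top concentration of the series not given in the record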
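Purified cruzain at 1.5 nM, pre-incubated 15 min with compound at room temperature in 100 mM sodium acetate pH 5.5, 5 mM DTT, 0.00005% Triton X-100. Reaction started with 2 uM Z-FR-AMC; AMC fluorescence increase over 60 s gives rate.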
MARV entry inh = Marburg virus entry inhibition. Marburg virus pseudotyped entry inhibition, cell reporter; control for the full effect not named in the record; about a third of the inactives were read at about 46 µM. Potency, µM (highest dose often 37.8 µM), for inactives: at the highest dose activity change, negative = inhibition, usual class: inhibitors. 300,000 compounds, 1.8% hits. AID 540276; active = well fitted inhibition curve with a large enough effect; inconclusive = small, poorly fitted or top-dose-only effect, or effect the other way; inactive = flat fitted curve, though single readings scatter; tested in HEK293 cells; about a fifth of its hits are not listed in these tables; note: % is set by controls: 0 for no effect and ±100 for the full control effect; luciferase read-out
NS1 inh = inhibitors of influenza NS1 protein function; S. cerevisiae slowed by influenza A NS1, growth recovery by OD600; Potency, µM (titrated, usually from 46.1 µM), without a hit: at the highest dose activity, positive = more growth; 270,000 compounds, 0.4% hits; active means well fitted rising curve with a large enough effect; inconclusive means small, poorly fitted or top-dose-only effect; inactive means no such curve, though single readings can be large or run the other way; note: nearly all actives have a fitted effect of over 50% in size
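S. cerevisiae expressing influenza A NS1, grown in glucose, washed, then diluted 1:100 into pH 6.0 -URA galactose medium with 23 nl compound. Growth recovery read as OD600; NS1-free strain serves as control.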
Lassa entry inh = Lassa virus entry inhibition. Lassa virus pseudotype entry inhibition, cell reporter; control for the full effect not named in the record. Potency, µM (doses to about 37.9 µM), inactives show at the top dose activity change, negative = inhibition, most hits filed as inhibitors. 300,000 compounds, 1.2% hits; active means well fitted inhibition curve with a large enough effect; inconclusive means small, poorly fitted or top-dose-only effect, or effect the other way; inactive means flat fitted curve, though single readings scatter; tested in HEK293 cells; note: % is set by controls: 0 for no effect and ±100 for the full control effect; nearly all actives have a fitted effect of over 50% in size; luciferase read-out
* = called active by the depositor; u = inconclusive; x = no result given; & = joins results of further samples; [ ] = another dose, or the depositor's remark. Unless noted, calls come from the whole dose curve; as a rule, active = well fitted curve in the direction sought with a large enough effect; inconclusive = small, poorly fitted or top-dose-only effect, or another doubt; inactive = no such curve, though single readings can be large; an effect the other way counts as inactive or inconclusive. Potency is the fitted concentration of half-maximal effect.

Start of the listing, in advance:
SMILES	Cruzain Triton	SARS PLP yeast	StopGo reporter	RE007 growth inh	Cruzain noTriton	MARV entry inh	NS1 inh	Lassa entry inh
Fc1ccccc1CNc1ccc(Cl)c(Cl)c1	-2.6%	0%	27%	u	-1%	-17%&-17%	4%	6%
CCCc1nnc(NC(=O)CCC(=O)N2CCCCC2CC)s1 (stereo not given)	-5.0%	4%	-10%	10%	5%	-2%	-12%	3%

Main list, repeating the preview:
SMILES	Cruzain Triton	SARS PLP yeast	StopGo reporter	RE007 growth inh	Cruzain noTriton	MARV entry inh	NS1 inh	Lassa entry inh
Fc1ccccc1CNc1ccc(Cl)c(Cl)c1	-2.6%	0%	27%	u	-1%	-17%&-17%	4%	6%
CCCc1nnc(NC(=O)CCC(=O)N2CCCCC2CC)s1 (stereo not given)	-5.0%	4%	-10%	10%	5%	-2%	-12%	3%
Cc1cc(C)nc(SCc2cc(=O)c(OC(=O)c3ccc(S(=O)(=O)N4CCCC4)cc3)co2)n1	-15%	-38%	-24%	6%	u	6%	-7%	2%
Cc1n[nH]c(=O)c2c(NC(=O)CSc3ccccc3F)oc(C)c12	x	0%	-11%	-1%	x	10%[46.1 µM]	x	-8%
COc1cccc(NC(=O)Nc2cccs2)c1	-11%	-6%	53%[activator]	-15%	-23%	-2%	17%	21%
CC(=O)Nc1ccc(C#Cc2ccc(NC(C)=O)cc2)cc1	3.9%	0%	x	0%	-5%	4.6µM*	8%	7.3µM*
Cc1cccc(C(=O)N(NC(=O)Oc2ccccc2)C(C)(C)C)c1	-1.9%	8%	-23%	11%	0%	-14%	2%	10%
CCOC(=O)N1C2c3ccccc3C(c3ccccc32)N1C(=O)OCC	x	x	-13%	5%	x	-15%	x	-5%
CCOc1ccc(CC(=O)N2N=C(C)CC2(O)C(F)(F)F)cc1 (stereo not given)	-1.1%	9%	3%	4%	6%	3%	-2%	10%
O=C(CSc1nc2ccccc2c(=O)n1-c1ccccc1)N1CCc2ccccc2C1	-6.3%	-24%	u	13%	7%	u	-32%	10µM*
O=C(c1ccc(N2CCCCC2)c([N+](=O)[O-])c1)N(c1ccccn1)c1ccccn1	x	2%	-17%	-10%	x	u	x	6%
CCOc1ccccc1NC(=O)c1cc2ccccc2oc1=O	x	7%	29%	7%	x	u	-5%	2%
CCN(CC)CCCNC(=O)CCc1c(C)n(CC)c2cc(-c3ccccc3OC)nn2c1=O	-1.2%	-1%	-4%&-2%	-15%	-11%	u	-1%	-4%&6%[46.1 µM]
COCCn1c(CN2CC(C)CC(C)C2)nc2c1c(=O)n(C)c(=O)n2C (stereo not given)	-3.3%	-2%	-22%	-5%	-5%	x	0%	x
COc1ccc(S(=O)(=O)N2CCc3ccccc32)cc1C(=O)OCc1nnc(-c2ccccc2)o1	0.3%	-6%	-16%	0%	13%	4%	u	12%
COc1ccccc1CNc1ccc([N+](=O)[O-])cc1C	x	-4%	u	6%	x	u	1%	u
COC(=O)c1scc(-c2ccc(C)cc2)c1S(=O)(=O)Nc1cc(OC)c(OC)c(OC)c1	-7.5%	x	-20%	x	u	x	x	-29%[46.1 µM]
COc1cc(-c2noc(-c3ccc(NCCc4ccccc4)c([N+](=O)[O-])c3)n2)cc(OC)c1OC	-4.1%	x	-4%	x	-9%	-17%[46.1 µM]	x	-17%[46.1 µM]
CCOc1ccccc1CN1C(=O)C2(OCCO2)c2ccccc21	x	-8%	4%	-7%	x	x	-20%	x
O=C(OCc1ccccc1)c1cc(S(=O)(=O)N2CCCCC2)ccc1N1CCOCC1	x	-5%	u	3%	x	u	x	u

Three records picked at random from the list so far:
SMILES	Cruzain Triton	SARS PLP yeast	StopGo reporter	RE007 growth inh	Cruzain noTriton	MARV entry inh	NS1 inh	Lassa entry inh
CCOC(=O)N1C2c3ccccc3C(c3ccccc32)N1C(=O)OCC	x	x	-13%	5%	x	-15%	x	-5%
Cc1n[nH]c(=O)c2c(NC(=O)CSc3ccccc3F)oc(C)c12	x	0%	-11%	-1%	x	10%[46.1 µM]	x	-8%
CCN(CC)CCCNC(=O)CCc1c(C)n(CC)c2cc(-c3ccccc3OC)nn2c1=O	-1.2%	-1%	-4%&-2%	-15%	-11%	u	-1%	-4%&6%[46.1 µM]

Following part
SMILES	Cruzain Triton	SARS PLP yeast	StopGo reporter	RE007 growth inh	Cruzain noTriton	MARV entry inh	NS1 inh	Lassa entry inh
CC1=C(C(N)=O)C(c2ccccc2)n2nc(-c3ccncc3)nc2N1 (stereo not given)	3.5%	4%	-3%	9%	-13%	u	7%	-12%
Cc1onc(-c2ccccc2)c1C(=O)Nc1cc(C(F)(F)F)ccc1N1CCOCC1	-4.2%	-2%	-26%	1%	u	u	u	u
O=C(CNC(=O)c1ccccc1)NC1(C(=O)NC2CCCC2)CCCCC1	4.0%	-6%	130%[activator]	18%[3.69 µM]	-1%	14%	-3%	2%
CC(=O)Nc1ccccc1NC(=O)c1ccccc1-c1ccccc1	x	10%	-22%	-8%	x	0%	5%	-12%
COc1ccc2c(c1)-c1nc(/N=C/c3ccccc3O)sc1CC2	-4.7%	-43%	-7%	u	-8%	19%	-28%	19%
COC(=O)C1=C(NC(=O)C2CCCCC2)CCS1	-7.5%	8%	-12%	-10%	6%	8%	-8%	1%
COc1ccc(-c2[nH]ncc2CN2CCN(C3CCCCC3)C(=O)C2)cc1F	x	1%	-13%	-13%	x	u	1%	-2%[46.1 µM]
COCCCNC(=O)c1oc2ccc(S(=O)(=O)N3CCOCC3)cc2c1C	x	-4%	0%	8%	x	-26%[46.1 µM]	16%	-4%
O=C(CN1C(=O)S/C(=C/c2ccncc2)C1=O)Nc1ccccc1	x	1%	-32%	-15%	x	x	-4%	x
Cc1ccc(C)n1-n1c(C)nc2sc3c(c2c1=O)CCCCC3	-4.8%	-11%	u	8%	-6%	u	-37%	u
Cc1ccc(N(C(=O)CNC(=O)c2ccco2)C(C(=O)NC2CCCCC2)c2cccnc2)c(C)c1 (stereo not given)	x	-1%	-8%	9%	x	u	13%	23%[46.1 µM]
COc1cc2c(cc1OC)C(COc1ccc(F)cc1)N(C(C)=O)CC2 (stereo not given)	x	1%	u	7%	x	x	-4%	x
CCOC(=O)CC(NC(=O)CCc1c(C)nc2cc(-c3ccccc3)nn2c1C)c1ccc(C)cc1 (stereo not given)	-9.4%	x	-13%	x	u	u	x	-27%[46.1 µM]
CCNC(=O)N1CCCC(C(=O)c2ccc(C(F)(F)F)cc2)C1 (stereo not given)	x	-3%	-1%	3%	x	x	-8%	x
CN1C(=O)CN=C(c2ccc(Cl)cc2)c2cc(Cl)ccc21	-1.2%	8%	-3%	4%[18.4 µM]	7%	-24%&-24%&-24%	-36%	-25%
CCCc1cc(=O)oc2cc(C)cc(OCC(=O)NCCCn3ccnc3)c12	x	7%	-1%	-13%	x	x	12%	x
O=C(Nc1nc(-c2ccc3c(c2)OCO3)cs1)c1ccncc1	4.5%	-1%	16µM*	u	-29%	7.9µM*	-5%	u
CN(Cc1ccon1)C(=O)CCc1nnc(CCCCc2ccccc2)o1	x	1%	-1%	9%	x	5%[46.1 µM]	-6%	-4%[46.1 µM]
COc1ccc(C)cc1NC(=O)c1nnn(-c2c(C)cccc2C)c1C	-3.6%	x	-23%	x	5%	u	x	10%[46.1 µM]
COc1ccccc1N1CCN(C(=O)CSc2nnnn2C2CC2)CC1	x	-1%	3%	15%	x	-13%	x	2%
CCCCOc1ccc(C(=O)NCCS(=O)(=O)N2CCN(c3ccc(F)cc3)CC2)cc1	-0.5%	x	-10%	x	-6%	x	x	4%[46.1 µM]
Cc1ccc(C(=O)NC(C(=O)Nc2cccc(S(N)(=O)=O)c2)C(C)C)cc1 (stereo not given)	x	1%	-23%	-7%	x	-11%[46.1 µM]	0%	25%
S=C(Nc1cccnc1)Nc1ccccc1Br	x	0%	15%	11%	x	-5%	5%	-1%
Cc1ccc(C)c(Cn2c3ccccc3c3cnn(CC(=O)NCCc4ccccc4)c(=O)c32)c1	0.4%	x	1%	x	2%	23%[46.1 µM]	x	2%[46.1 µM]
COc1ccc(N2CCN(C(CNC(=O)C3CCCCC3)c3cccnc3)CC2)cc1 (stereo not given)	0.7%	-9%	-6%	-1%	12%	-22%	-10%	-14%
NNC(=S)Nc1cccc(Cl)c1	x	-2%	8%	15%	x	x	-2%	x
CCCC(=O)Nc1sc(C)c(-c2ccc(OC)cc2)c1C#N	2.6%	-3%	-2%	17%	6.3µM*	u	-3%	7%
COc1ccc(OC)c(Cc2nnc(CCC(=O)NC3C4CC5CC(C4)CC3C5)o2)c1 (stereo not given)	x	1%	2%	1%	x	22%[46.1 µM]	-10%	4%[46.1 µM]
Cc1ccnc(N/C=C(/NC(=O)c2ccccc2)C(=O)N/N=C\c2ccc(F)cc2)n1	-6.6%	x	-20%	-1%	-15%	-5%	3%	-15%
COc1ccc(F)cc1S(=O)(=O)NCC(c1ccco1)N1CCc2ccccc2C1 (stereo not given)	x	2%	21%	-16%	x	u	x	3%
Cc1noc(C)c1COc1ccccc1C(=O)N1CCN(S(=O)(=O)c2ccccc2F)CC1	x	x	6%	2%	x	-7%	x	-3%
S=C(NCc1ccco1)Nc1ccccc1Cl	x	0%	38%[activator]	-7%	x	x	0%	x

No enrichment for hits. Share with any hit: about 4.7%.
